# Screening data: PubChem, Fisher Drug Discovery Resource Center
# NPYLR7 agonist = mosquito NPYLR7 agonism; HEK293T NPYLR7/Galpha15, GCaMP6s calcium fluorescence; activation, % at 10 µM; 270,000 tested, 0.15% active; AID 1259423; in the data active = activation above about 40%;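 note: 0% = vehicle and 100% = reference agonist at the receptor; some compounds past the cut are filed as inactive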
# NPYLR7 agonist max-min = second read-out of NPYLR7 agonist, no call of its own (marks repeat the call); activation, %; measured here: Max-Min RFU normalised activation; some inactives read as strong as hits;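 span of the calcium signal over five minutes; 0% = vehicle and 100% = native peptide agonist; compound fluorescence can raise it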
# * hit, by the source's call; & = joins results of further samples. This is a subset; rates above refer to the full screens.
SMILES,NPYLR7 agonist,NPYLR7 agonist max-min
COc1ccc(C2C3=C(CCCC3=O)OC(=N)C2C#N)cc1 (centres undefined),0,-5
Cc1nc2sc3c(NCCC(C)C)ncnc3c2c2c1COC(C)(C)C2,4,1
COc1ccccc1C(=O)N1CCC(C(NC(=O)C2CC2)C(=O)N2CCCC2)CC1 (centres undefined),-8,-7
O=[N+]([O-])c1ccccc1-n1nc2c3nonc3ccc2[n+]1[O-],1,0
CCOC(=O)C1(C)CCCCCN1C(=O)c1ccccc1F (centres undefined),-3,-8
O=C(CNC(=O)c1ccco1)Nc1cccc2c1CCCC2,1,0
CCOC(=O)N1CCN(C(=O)CCc2cc3c(n2CCc2cccc(F)c2)-c2ccc(OC)cc2CC3)CC1,23,8
COCCCN(CC(=O)N1CCc2sccc2C1COc1cccc(F)c1)C(=O)c1cccc(F)c1 (centres undefined),-1,6
CC1CCc2c(sc(NC(=O)c3noc4c3CCCCC4)c2C(N)=O)C1 (centres undefined),-7,-6
Cc1ccccc1Oc1cc(N2CCCCCC2)ncn1,-1,6
COCCOCC(=O)N1CCN(Cc2ccc(-c3noc(-c4cccs4)n3)cc2)CC1,4,1
Cn1ncc(Oc2ccc3c(c2)OCO3)c(Nc2cccc(C(=O)NCc3ccco3)c2)c1=O,25,26
CSc1ccccc1C(=O)NC1CCCc2c1cnn2-c1cc(C)cc(C)c1 (centres undefined),7,-5
CSc1nnc(C)c(=O)n1COC(=O)c1ccc(Cl)c([N+](=O)[O-])c1,-3,-5
Cc1ccccc1C1=NOC(CN(Cc2ccccc2)CC(O)Cc2ccccc2)C1 (centres undefined),-3,-3
CC1CCCCN1CCCNc1ccc(S(=O)(=O)N2CCN(C)CC2)cc1[N+](=O)[O-] (centres undefined),0,-5
O=C(Nc1c(C(=O)N2CCOCC2)oc2ccccc12)c1cccc(F)c1,16,9
COc1cccc(-n2nnc3c(N4CCN(C(=O)CC5CCCC5)CC4)ncnc32)c1,-9,-18
N#Cc1ccccc1N=Nc1c(-c2ccc([N+](=O)[O-])cc2)[nH]n(-c2ccccc2)c1=O,-4,-9
COc1ccc2c(c1)C1(SCCN1C(=O)c1ccco1)C(=O)N2Cc1ccc(F)c(F)c1 (centres undefined),9,12
O=C(OCC(=O)N(C1CCCCC1)C1CCCCC1)c1ccc(Br)o1,1,1
CC1C(=O)N(c2ccc(F)cc2)CCN1C(=O)Cc1ccccc1 (centres undefined),-3,-1
O=C(OCc1nc(C(=O)NCCNc2cccc3ccccc23)cs1)c1ccccc1,-10,-16
Cc1cccc(-c2ccnc3nc(N4CCN(C(=O)c5cccc(Cl)c5)CC4)nn23)c1,2,-4
CNC(=O)CS(=O)(=O)c1ccc(C(=O)NC(C)c2ccc(F)c(F)c2)cc1 (centres undefined),-3,-5

# Profiles, quoted from the list. Screens in order: NPYLR7 agonist, NPYLR7 agonist max-min
# Listed for Cn1ncc(Oc2ccc3c(c2)OCO3)c(Nc2cccc(C(=O)NCc3ccco3)c2)c1=O : 25, 26
# Listed for O=C(CNC(=O)c1ccco1)Nc1cccc2c1CCCC2 : 1, 0
# Listed for COCCCN(CC(=O)N1CCc2sccc2C1COc1cccc(F)c1)C(=O)c1cccc(F)c1 (centres undefined) : -1, 6
# Listed for CSc1ccccc1C(=O)NC1CCCc2c1cnn2-c1cc(C)cc(C)c1 (centres undefined) : 7, -5
# Listed for CCOC(=O)N1CCN(C(=O)CCc2cc3c(n2CCc2cccc(F)c2)-c2ccc(OC)cc2CC3)CC1 : 23, 8

# (listing goes on)
SMILES,NPYLR7 agonist,NPYLR7 agonist max-min
COc1ccc(-c2cc3c(=O)n(Cc4nc(-c5ccc(Cl)cc5)oc4C)ccn3n2)cc1,4,3
O=C(NCc1sccc1Br)N1CCCC1c1ccncc1 (centres undefined),3,-1
COC(=O)C1=C(C)N=c2s/c(=C\c3cc(Br)ccc3OC(C)=O)c(=O)n2C1c1ccc(OC)cc1 (centres undefined),-5,-2
COc1cn(CC(=O)Nc2cc(C)ccc2C)c(CN2CCN(C(C)=O)CC2)cc1=O,2,1
COc1ccccc1C(=O)N1CCN(c2nccc(-c3cc(OC)c(OC)c(OC)c3)n2)CC1,4,0
O=Cc1c(-c2cccs2)nc2c3ccccc3ccn12,-8,-17
CCc1nc(-c2c(-c3ccccc3)ncn2CCn2cc(C)nn2)c(C)[nH]1,-1,1
Cc1ccc(C(=O)NCCc2nnc3ccc(SCC(=O)c4ccccc4)nn23)cc1,11,-1
COCCN(Cc1nccs1)C(=O)c1ccccc1C1CCNC1 (centres undefined),-4,-4
C=c1occc1=C1NN=C(SCC(=O)c2c(N)n(C3CC3)c(=O)[nH]c2=O)O1,6,8
Cc1cccc2sc(N(Cc3cccnc3)C(=O)c3cccs3)nc12,-5,0
O=C(c1cccc(Cl)c1)N1CCSC12C(=O)N(Cc1ccccc1Cl)c1ccccc12 (centres undefined),-7,-1
CCC1c2ccsc2CCN1Cc1ccc2c(c1)OCCO2 (centres undefined),4,1
C=c1cc(C)n(CC(=O)Nc2c(C)cc(C)cc2C)c(=O)c1=C1N=C(c2ccc(OC)cc2)NO1,0,-4
Cc1cc(CNCc2c(C(=O)N3CCCCCCC3)nc3ccc(Cl)cn23)nn1C,19&10,7&12
Cc1ccc(CN2C(=O)C(C)ON=C2c2cccs2)cc1 (centres undefined),5,3
CCOc1ccc(C(O)=C2C(=O)C(=O)N(c3nccs3)C2c2cccc([N+](=O)[O-])c2)cc1 (centres undefined),15,19
CCOC(=O)CN([C@H]1C[C@H]2CCOC[C@H]2C1)S(C)(=O)=O,0,8
CCN(CCN(C)C)C(=O)c1ccc2nc(C)c(N(C)Cc3ccc(NC(C)=O)cc3)n2c1,8,-2
CCOc1nc(OCC)nc(N2CCC(C)CC2)n1,11,10
CCOC(=O)c1c(NC(=O)COc2ccc(Cl)cc2)sc(C(=O)Nc2ccccc2C)c1C,-8,-3
CCOC(=O)c1ccc(NC(=O)c2cccn(OCc3ccccc3F)c2=O)cc1,-3,-2
COc1ccc2sc(N(Cc3ccccn3)C(=O)c3cc(C)n(C)n3)nc2c1,5,1
CC1CN(Cc2nc3c(c(=O)[nH]c(=O)n3C)n2Cc2c(F)cccc2Cl)CC(C)O1 (centres undefined),15,5
Cc1nc2nc(N)nn2c(C)c1CCC(=O)NC(C)c1ccccc1Br (centres undefined),2,6

# Brought forward from above: 4 entries, followed by the next part.
SMILES,NPYLR7 agonist,NPYLR7 agonist max-min
CCOC(=O)c1ccc(NC(=O)c2cccn(OCc3ccccc3F)c2=O)cc1,-3,-2
COc1ccc2sc(N(Cc3ccccn3)C(=O)c3cc(C)n(C)n3)nc2c1,5,1
CC1CN(Cc2nc3c(c(=O)[nH]c(=O)n3C)n2Cc2c(F)cccc2Cl)CC(C)O1 (centres undefined),15,5
Cc1nc2nc(N)nn2c(C)c1CCC(=O)NC(C)c1ccccc1Br (centres undefined),2,6
O=C(OCc1ccccc1)[C@@H]1CCCN1C(=O)c1ccc2nc(-c3ccccc3)c(-c3ccccc3)nc2c1,-8,-17
CC(=O)c1ccc(OCC(=O)Nc2nc3c(s2)CCCC3)cc1,12,5
CCOC(=O)C1=C(C)NC(=S)NC1c1ccc(OC)cc1 (centres undefined),-6,-11
CC(C)Cn1nc(C(=O)NC2CCCC2)c2c1CCN(C(=O)c1cccc(N3CCCC3=O)c1)C2,15,1
CC(C)Cc1c(O)nc(SCCN(C)C)[nH]c1=O,14,6
COCCNC(=O)Cn1nc2c(c1NC(=O)c1cc(-c3ccccc3)on1)CSC2,-3,-1
COc1cc(S(=O)(=O)NCc2ccco2)c(OC)cc1C,6,8
Clc1ccc(Oc2cc(N3CCC(Cc4ccccc4)CC3)ncn2)cc1,-4,5
CCOc1ccccc1C(=O)N1CCCC(c2ccn[nH]2)C1 (centres undefined),-19,-21
Cc1ccc2c(c1)CCCN2C(=O)CN(CCO)Cc1nccs1,-6,-9
CC1CN(C(=O)CCN2CCc3sccc3C2c2ccccc2)CCN1C(=O)Cc1ccc(F)cc1 (centres undefined),9,-2
CC(C)c1ncc(S(=O)(=O)Nc2ccc3oc(C4CC4)nc3c2)[nH]1,0,-9
CC12CC3CC(C)(C1)CC(C(=O)O)(C3)C2,-8,-8
Cc1nc(Nc2ccc(NC(=O)c3ccc4c(c3)OCO4)cc2)cc(-n2cccn2)n1,-8,-12
Cc1nc(C)c2c(n1)OC(CN1CCc3onc(-c4ccccc4)c3C1)C2 (centres undefined),9,8
Cc1cccc(-c2nc3cc(C)cc(C)n3c2Nc2c(C)cccc2C)c1,3,8
COc1cccc(-c2ccc(NC(=O)C3CCCN(Cc4cccc(O)c4)C3)cc2)c1 (centres undefined),5&4,3&-4
CCc1[nH]n(-c2cccc(Cl)c2)c(=O)c1C1=C([n+]2ccccc2)C(=O)N(c2ccccc2)C1=O,11,7
C=c1ccccc1=C1NN=C(SCC(=O)c2c(C)[nH]c3ccccc23)O1,15,8
CO/N=C(/C(=O)N1CCC(O)(c2ccccc2)CC1)c1csc(NC=O)n1,-6,-11
COc1ccccc1N=c1oc2c(OC)cccc2cc1C(N)=O,-2,-6
C=CCNC(=O)CN1CCc2ccc(S(=O)(=O)NCC)cc21,0,-1
COc1ccc(OC)c(C(=O)CSc2nnc(C)n2-c2ccccc2C)c1,16,23
CCCCN(CC(=O)N(Cc1ccccc1)Cc1cccn1Cc1cccc(OC)c1)C(=O)c1ccc(C(F)(F)F)cc1,-3,-3
O=C(CC1CSc2nc3c(cnn3-c3cccc(Cl)c3)c(=O)n21)Nc1nccs1 (centres undefined),0,-2
SMILES,NPYLR7 agonist,NPYLR7 agonist max-min
O=C(Nc1ccc2c(c1)CN(C(=O)/C=C/c1cccs1)CC2)c1ccccn1,4&0,0&-2
COCC(=O)N(Cc1ccccc1)c1ccc(CC(=O)N(C)C2CCCCC2)cc1,6,4
CCOC(=O)C1CCN(C(=O)COC(=O)c2cc3ccccc3o2)CC1,13,13
O=C(c1c(F)cccc1F)N1CCN(c2nc3nccc(-c4cccnc4)n3n2)CC1,6,4
C=C(C)CN=c1scc(-c2ccc(OC)cc2OC)n1N=C(C)c1ccc(OC)cc1,7,6
O=C(/C=C/c1ccc(F)c(F)c1)NCC1CCC2(CCN(C(=O)Cc3ccccc3)CC2)O1 (centres undefined),19,8
OC(c1cccs1)c1nccc2ccccc12 (centres undefined),7,3
Cc1oc(-c2cccc(C(F)(F)F)c2)nc1CN1CCCCC1c1ccccn1 (centres undefined),5,6
O=C(NS(=O)(=O)c1ccc2c(c1)OCCCO2)c1ccc(F)cc1,5,2
COc1cccc(-c2noc(CCN(CC(C)C)CC(O)CN3CCOCC3)n2)c1 (centres undefined),14,17
Cc1nn(C)c(C)c1C(=O)Nc1ccc(C(C)(C)C)cc1,3,-2
CN1/C(=C(/CCC#N)N=C(C#N)C#N)C(C)(C)c2ccccc21,12,11
COC(=O)c1ccc(NC(=O)COC(=O)CC(C)n2cccc2)cc1 (centres undefined),7,3
O=C1Nc2ccc(Br)cc2/C1=c1/sc2n(c1=O)CCN=2,-7,-12
c1ccn(-c2ccc(-c3noc(-c4ccc5c(c4)OCO5)n3)cc2)c1,1,-2
Cc1nc2ncc3c(=O)n(-c4ccc(F)c(Cl)c4)ccc3n2n1,1,5
CC(=O)OCC[C@H](C)CCC=C(C)C,-8,-11
COc1ccc2c(c1)CCc1c(-c3ccc(C(=O)N[C@@H]4CCCc5ccccc54)cc3)n[nH]c1-2,9,8
CCNC(=O)C(C)NC(=O)c1cc(F)cc(F)c1 (centres undefined),4,1
Cc1cc(NC(=O)CCC(=O)N2CCSc3ccccc32)n(C)n1,1,1
COc1ccc(SCc2csc(-c3ccc(Cl)cc3)n2)cc1OC,26,30
Cc1ccc(-n2ncc(Oc3ccc4c(c3)OCO4)c(Nc3cccc(C(=O)N4CCOCC4)c3)c2=O)cc1,8,12
CCCCOc1ccc(C2=N/C(=C\C=C\c3ccccc3)C(=O)O2)cc1,3,-4
Cc1ccc2[nH]c(C(=O)O)c(CN3CCC(O)(c4ccccc4C)C3)c2c1 (centres undefined),16,11
CCC(C)C(NC(=O)Nc1ccc(OC)cc1OC)C(=O)Nc1nnc(-c2cccc(OC)c2)s1 (centres undefined),25,32
SMILES,NPYLR7 agonist,NPYLR7 agonist max-min
Cc1nc2oc3ccccc3c(=O)c2c(=O)n1Cc1ccccc1,2,-2
COc1ccc(CCOC(=O)[C@@H]2CCCN2C(=O)[C@H](Cc2ccccc2)NS(=O)(=O)c2ccc(C)cc2)cc1OC,2,0
O=C(c1ccc2c(c1)OCO2)N1CCC(CO)(CCOc2ccccc2)CC1,8,0
CCc1cccc(OCCCN(C)C(=O)c2ncccc2O)c1,3,2
COc1ccc(CCn2nc(C(=O)N(C)C)c3c2CCN(C(=O)c2cc(-c4ccccc4)n[nH]2)C3)cc1,9,-5
O=C(CSc1nnc(-c2ccccc2)n1-c1ccccc1)N/N=C\c1ccncc1,-3,-9
CS(=O)(=O)N1CCC(C(=O)NCCn2ncc3c(N4CCCCC4)ncnc32)CC1,-1,-3
Cc1cc(C)n2c(NC(C)(C)C)c(-c3ccc4c(c3)OCO4)nc2c1,18,29
C=CCN(C(=O)Cc1ccccc1Cl)C1CCc2ccccc21 (centres undefined),5,4
CC1CCN(Cc2csc(NC(=O)Cc3ccc(F)cc3)n2)CC1,4,2
Cc1ccc(CN(C)Cc2ccc(C(=O)Nc3ccccc3)cc2)o1,16,11
Cc1ccsc1CN(Cc1ccc(F)cc1)C(=O)CN(CC1CCCO1)C(=O)Nc1ccc(Br)cc1 (centres undefined),-3,5
CC1(C2CCN(c3cc(-n4ccnc4)ncn3)CC2)OCCO1,3,1
Cc1cc(C)n(C(=O)Cn2cc([N+](=O)[O-])cn2)n1,0,-1
CCCOC1CCCN(C(=O)c2cc(COc3ccccc3OC)on2)C1 (centres undefined),4,2
O=S(=O)(NC1CCc2ccccc21)c1cccc2nsnc12 (centres undefined),-3,-5
CC(=O)Oc1cc2oc3cc(C(C)(C)C)ccc3[nH]c2c2c(=O)c3ccccc3c(=O)c12,6,5
CC(C)(C)c1ccc(NC(=O)N[C@H]2CO[C@H]3[C@@H]2OC[C@H]3O)cc1,-7,-14
